From PubChem BioAssay
Cruzain noTriton – inhibitors of Trypanosoma cruzi cruzain without detergent; purified cruzain, Z-FR-AMC fluorescence, no detergent; 2.3% of 200,000 active; Potency, µM, for inactives: max response, negative = inhibition, usual class: inhibitors; AID 1476; P25779; active = well fitted curve in the direction sought with a large enough effect; inconclusive = small, poorly fitted or top-dose-only effect, or another doubt; inactive = no such curve, though single readings can be large; an effect the other way counts as inactive or inconclusive;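 also: plate controls were enzyme without inhibitor for no effect and buffer without enzyme for full effect; nearly all actives have a fitted effect of over 40% in size; top concentration of the series not given in the record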
Target sequence (P25779 123-467 limits assumed): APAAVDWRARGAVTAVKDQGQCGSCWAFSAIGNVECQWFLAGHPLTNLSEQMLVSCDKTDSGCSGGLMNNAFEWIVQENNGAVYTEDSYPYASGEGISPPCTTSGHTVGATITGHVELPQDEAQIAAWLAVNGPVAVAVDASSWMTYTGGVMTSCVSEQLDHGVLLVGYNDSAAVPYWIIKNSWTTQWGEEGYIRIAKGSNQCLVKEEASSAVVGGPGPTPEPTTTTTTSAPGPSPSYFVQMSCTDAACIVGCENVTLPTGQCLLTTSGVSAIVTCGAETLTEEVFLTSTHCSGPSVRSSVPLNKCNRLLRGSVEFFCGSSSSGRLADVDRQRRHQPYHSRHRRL
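Purified cruzain at 1.5 nM, pre-incubated 15 min with compound at room temperature in 100 mM sodium acetate pH 5.5, 5 mM DTT, 0.00005% Triton X-100. Reaction started with 2 uM Z-FR-AMC; AMC fluorescence increase over 60 s gives rate.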
MARV entry inh – Marburg virus entry inhibition | Marburg virus pseudotyped entry inhibition, cell reporter; control for the full effect not named in the record; about a third of the inactives were read at about 46 µM | 1.8% of 300,000 active | Potency, µM (highest dose often 37.8 µM), inactives show at the highest dose activity change, negative = inhibition, hits mostly inhibitors; active = well fitted inhibition curve with a large enough effect; inconclusive = small, poorly fitted or top-dose-only effect, or effect the other way; inactive = flat fitted curve, though single readings scatter; tested in HEK293 cells; about a fifth of its hits are not listed in these tables; also: % is scaled to controls: 0 for no effect and ±100 for the full control effect; luciferase read-out
LASV entry inh – inhibitors of Lassa virus binding or cell entry; Lassa virus pseudotype entry inhibition, cell reporter; control for the full effect not named in the record; Potency, µM (series often up to 37.9 µM), without a hit: at the highest dose activity change, negative = inhibition, most hits filed as inhibitors; 1.2% of 300,000 active; active means well fitted inhibition curve with a large enough effect; inconclusive means small, poorly fitted or top-dose-only effect, or effect the other way; inactive means flat fitted curve, though single readings scatter; tested in HEK293 cells; also: % is scaled to controls: 0 for no effect and ±100 for the full control effect; nearly all actives have a fitted effect of over 50% in size; luciferase read-out
SARS PLpro yeast – inhibitors of SARS-CoV papain-like protease in yeast; S. cerevisiae expressing SARS-CoV PLpro, growth rescue; control for the full effect not named in the record; Potency, µM (titrated, usually from 32.9 µM), inactives show at the top dose activity, positive = growth rescue; 0.19% of 330,000 active; AID 485353; also: 0% is about no effect; nearly all actives have a fitted effect of over 55% in size; growth read by luminescence after 48 h
NS1 inh – blocks influenza NS1 protein function. S. cerevisiae slowed by influenza A NS1, growth recovery by OD600. Potency, µM (titrated, usually from 46.1 µM), for inactives: at the highest dose activity, positive = more growth. 0.4% of 270,000 active. AID 2326; also: actives are rising curves; nearly all actives have a fitted effect of over 50% in size
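OD600 was taken as the measure of yeast growth restored by compound in an NS1-expressing S. cerevisiae strain. Cells had been washed out of glucose medium and diluted 1:100 into galactose -URA medium, pH 6.0.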
StopGo reporter – lowers the luciferase signal of an FMDV 2A StopGo reporter | human cells with a luciferase reporter of 2A StopGo recoding; control for the full effect not named in the record | Potency, µM (series often up to 57.9 µM), for inactives: at the highest dose signal change, negative = less light | 1.2% of 410,000 active; active = well fitted falling curve with a large enough effect; inconclusive = small, poorly fitted or top-dose-only effect; inactive = no such curve, though single readings can be large or run the other way; tested in HEK293T cells; also: % is scaled to controls: 0 for no effect and ±100 for the full control effect; nearly all actives have a fitted effect of over 45% in size; luciferase light after 4 h
RE007 growth inh – less growth of the S. pombe RE007 Vpr strain. S. pombe RE007 Vpr strain, BacTiter-Glo ATP luminescence, 24 h; control for the full effect not named in the record. Potency, µM (doses to about 92.2 µM), without a hit: at the top dose activity change, negative = less growth. 0.21% of 360,000 active; active = well fitted falling curve with a large enough effect; inconclusive = small, poorly fitted or top-dose-only effect; inactive = no such curve, though single readings can be large or run the other way;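 also: % is scaled to controls: 0 for no effect and ±100 for the full control effect; nearly all actives have a fitted effect of over 50% in size; the assay follows cell death caused by Vpr and the record does not say whether a fall means rescue or toxicity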
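Fission yeast RE007 carrying one integrated HIV-1 vpr copy, seeded at OD 0.01 in PMG+AL medium with 23 nL pinned compound. Grown 24 h at 30 degrees; viability read by BacTiter-Glo luminescence after 5 min.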
Cruzain Triton – inhibitors of Trypanosoma cruzi cruzain with detergent | P25779 | purified cruzain, Z-FR-AMC fluorescence, 0.01% Triton | Potency, µM, for the others: max response, negative = inhibition, usual class: inhibitors | 0.43% of 200,000 active; active = well fitted curve in the direction sought with a large enough effect; inconclusive = small, poorly fitted or top-dose-only effect, or another doubt; inactive = no such curve, though single readings can be large; an effect the other way counts as inactive or inconclusive;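 also: plate controls were neutral wells for no effect and buffer without enzyme for full effect; nearly all actives have a fitted effect of over 40% in size; top concentration of the series not given in the record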
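Enzyme 1.5 nM, Z-FR-AMC 2 uM, NaOAc 100 mM pH 5.5, DTT 5 mM, Triton X-100 0.01%; 15 min RT compound preincubation; kinetic ex360/em450, 60 s delta.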
Numbers without * were called inactive; u = inconclusive; x = not tested or not shown; & = joins results of further samples; [ ] = another dose, or the depositor's remark. Unless noted, calls follow the shape of the dose curve; as a rule, active means well fitted rising curve with a large enough effect; inconclusive means small, poorly fitted or top-dose-only effect; inactive means no such curve, though single readings can be large or run the other way. Potency is read from the fitted curve at half-maximal effect.

SMILES	Cruzain noTriton	MARV entry inh	LASV entry inh	SARS PLpro yeast	NS1 inh	StopGo reporter	RE007 growth inh	Cruzain Triton
CCOC(=O)N1CCC(NC(=O)C2CCN(C(=O)c3cc4sccc4n3CC)CC2)CC1	x	-24%[46.1 µM]	u	0%	-7%	-26%	0%	x
COc1ccc(CSc2n[nH]c(C)n2)cc1[N+](=O)[O-]	5%	u	-14%	1%	-1%	7%	23%	-2.3%
CCc1ccccc1N(CC(=O)NCCc1ccccc1)C(=O)CCC(=O)Nc1ccccn1	x	-9%[46.1 µM]	x	2%	-12%	-23%	0%	x
Cc1ccccc1Nc1nc(-c2sc(NC(=O)c3cccc(Cl)c3)nc2C)cs1	6.3µM*	-7%	x	-1%	21%	x	x	1.6%
O=c1[nH]c(N2CCCCC2)nc2ncn(Cc3ccccc3)c12	x	x	x	0%	-1%	0%	-4%	x
CCC(C)c1ccc(NC(=O)C2CCCN(c3ncccn3)C2)cc1 (stereo not given)	u	u	-18%	-9%	-46%	12%	18%[3.69 µM]	-4.9%
COc1ccc(CCNC(=O)[C@H](CCSC)NC(=O)N2CCn3c2nc2ccccc23)cc1OC	x	0%[46.1 µM]	-8%[46.1 µM]	-4%	-13%	-14%	-3%	x
CCn1c2ccccc2c2cc(NC(=O)CSc3nnc(-c4cccc(Cl)c4)o3)ccc21	10µM*	-40%	-18%	10%	-1%	-14%	-8%	6.2%
Cc1[nH]c2ccccc2c1C1(O)C(=O)N(Cc2ccc(Cl)cc2)c2ccccc21 (stereo not given)	u	10%[46.1 µM]	u	x	x	-24%	x	-12%
c1ccc(OCCCc2nc(-c3cccnc3)no2)cc1	-4%	-3%	10%	-2%	-12%	-22%	-28%	6.5%
CCN(C(=O)Cn1nc(Cc2cccnc2)c2ccccc2c1=O)c1cc(C)ccc1C	3%	-27%[46.1 µM]	-7%[46.1 µM]	x	x	-18%	x	-0.2%
CN(C)CCn1c(NC(=O)c2ccc(Cl)cc2)nc2ccccc21	-9%	23%	-1%	8%	1%	x	16%	-0.2%
Cc1ccccc1NC(=O)Cc1nc(COC(=O)c2cc([N+](=O)[O-])ccc2NCCO)cs1	x	u	3%	-2%	x	u	-7%	x
COc1ccc(-n2c(SCC(=O)N/N=C(\C)c3cccnc3)nc3ccccc3c2=O)cc1	x	-21%	-1%	1%	2%	-17%	23%	x
COc1ccc(C(=O)N/C(=C\c2cn(S(=O)(=O)N(C)C)c3ccccc23)C(=O)N2CCOCC2)cc1	x	x	x	-3%	9%	12%	4%	x
Cc1nc2cc([N+](=O)[O-])ccc2c(=O)n1-c1ccccc1[N+](=O)[O-]	x	-11%	-12%	-1%	7%	-18%	6%	x
C=CCN(CC=C)C(=S)Nc1cc(Cl)ccc1OC	x	8%[46.1 µM]	1%[46.1 µM]	-1%	1%	13%	-7%	x
Cc1sc2nc(-c3cccs3)nc(N3CCCN(C)CC3)c2c1C	u	-1%	x	-3%	-7%	x	x	-9.0%
CCOC(=O)c1cc2oc(C(c3nnnn3C3CCCCC3)N3CCOCC3)cc2[nH]1 (stereo not given)	u	u	u	-22%	-36%	-10%	9%	-10%
Nc1ccc2ccc(O)cc2c1	x	u	-2%[46.1 µM]	x	x	34%[activator]	-25%	x
CCn1c(=O)c2cc(S(=O)(=O)NC3CCCCC3)ccc2n(CC)c1=O	-6%	5%	3%	0%	-16%	x	-16%	4.1%
COc1ccc(-n2c(Cc3ccccc3)nnc2SCc2nc(-c3cccs3)no2)cc1	-9%	-24%[46.1 µM]	-23%[46.1 µM]	x	x	-11%	x	-7.1%
CN1CCc2c(sc3c2C(=O)NC(c2ccc(OC(=O)c4ccc(Cl)cc4)cc2)N3)C1 (stereo not given)	6%	x	4%[46.1 µM]	x	x	12%	x	-6.2%
Cc1cc(-c2nnc(CCC(=O)N(CC3CCC3)CC3CCCO3)o2)no1 (stereo not given)	x	u	25%	1%	0%	49%[activator]	-1%	x
O=C(CSc1nnnn1-c1ccc(Cl)cc1)N1CCNC1=O	x	6%	9%	-2%	x	0%	-4%	x

Carrying on:
SMILES	Cruzain noTriton	MARV entry inh	LASV entry inh	SARS PLpro yeast	NS1 inh	StopGo reporter	RE007 growth inh	Cruzain Triton
Cn1c(CC(=O)Nc2ccccc2C(F)(F)F)c(Sc2ccccc2)c2ccccc21	-5%	u	6%	25%	0%	0%	-19%	-0.4%
c1ccc(CNc2nc(NCc3ccccc3)c3ccccc3n2)cc1	x	u	10µM*	-1%	-5%	u	8%	x
COc1cc(C(=O)Nc2oc(-c3ccccc3)c(-c3ccccc3)c2C#N)cc(OC)c1OC	-4%	-21%	-7%	0%	5%	-16%	4%	-2.3%
COc1ccccc1N1CN(CCc2ccccc2)CNC1=S	x	0%[46.1 µM]	11%[46.1 µM]	0%	0%	-13%	-1%	x
Cc1ccc(S(=O)(=O)n2nc(OC(=O)C(C)(C)C)cc2N)cc1	-8%	-16%&-16%	16%	-5%	9%	-20%	6%	-4.6%
CCOCCCNC(=O)C(NC(=O)c1ccc(NC(C)=O)cc1)c1ccc(OC)cc1 (stereo not given)	-6%	-2%	-5%	-3%	9%	-24%	-8%	4.1%
NS(=O)(=O)c1ccc(NC(=O)COC(=O)CCc2ccccc2)cc1	x	15%[46.1 µM]	7%	0%	3%	2%	-24%	x
CCOc1ccccc1Nc1nc(-c2ccc(C)cc2)c(CC(=O)O)s1	u	u	-6%[46.1 µM]	x	x	31%[activator]	x	-8.3%
CCC(C)(C)n1nnnc1C(c1cc2ccc(OC)cc2[nH]c1=O)N1CCc2ccccc2C1 (stereo not given)	-5%	-22%	-12%	1%	13%	-12%	-3%	-7.4%
CCOC(=O)CCSc1nc(C)c2ccccc2n1	-1%	19%[46.1 µM]	5%	-5%	-63%	56%[activator]	-21%	-1.7%
COc1cc(OC)cc(C(=O)NCC2CCCN(Cc3ccc(SC)cc3)C2)c1 (stereo not given)	x	x	x	-3%	-3%	-22%	-6%	x
Cc1c[nH]c2cccc(OCC(O)CNC(C)(C)C)c12 (stereo not given)	-11%	-28%	-2%	3%	4%	8%	-17%	-1.0%
O=C(O)c1cc2ccccc2oc1=O	-7%	x	x	5%	-37%	0%	13%	-2.6%
Cc1cccc(CSc2nnnn2-c2ccccc2)c1	0%	u	10µM*	-1%	-4%	3%	u	-6.4%
COc1ccccc1-n1cnnc1SCC(=O)c1c[nH]c2ccccc12	-21%	u	14%	11%	20%	15%	-17%	-5.8%
O=C(NCc1ccco1)C1(S(=O)(=O)c2ccc(Cl)cc2)CC1	-4%	-2%	12%	-6%	-5%	9%	13%	-2.1%
N#C/C(=C\c1ccc(N2CCOCC2)o1)C(=O)NCCc1ccccc1	x	u	u	0%	-1%	15%	3%	x
C#CCOc1ccc2c(C)cc(=O)oc2c1	6%	-10%	x	-5%	-2%	-1%	5%	-4.7%
COc1cc(NS(=O)(=O)c2ccc(NC(=S)NC(=O)c3sc4ccccc4c3Cl)cc2)ncn1	u	11%	4%	-30%	1%	-1%	3%	-7.7%
Nc1nc(-c2cccnc2)nc(N2CCCCC2)n1	3%	-11%[46.1 µM]	13%	-2%	-19%	0%	7%	5.5%
COc1ccc(-c2c(C)c3cc(O)ccc3oc2=O)cc1	x	20%[46.1 µM]	3%[46.1 µM]	16%	-23%	8%	-16%	x
COc1cc2c(cc1OC)CN(C(=O)CCCOc1ccc(Cl)cc1Cl)CC2	249%	u	0%	-25%	-149%	u	6%	-6.5%
O=C(CNc1cccc(Cl)c1)c1ccc(Cl)cc1	32µM*	u	3%	-10%	-69%	74%[activator]	-17%	6.6%
Cc1cc(C(=O)N/N=C/c2ccc(-c3ccc(C)c(Cl)c3)o2)n[nH]1	x	u	-19%	-1%	-1%	-16%	3%	x
CCCNC(=O)c1ccc(S(N)(=O)=O)cc1	x	8%[46.1 µM]	-2%[46.1 µM]	3%	4%	11%	1%	x

Continuation:
SMILES	Cruzain noTriton	MARV entry inh	LASV entry inh	SARS PLpro yeast	NS1 inh	StopGo reporter	RE007 growth inh	Cruzain Triton
O=S(=O)(c1ccc(NC(=S)NCCc2ccccc2)cc1)N1CCOCC1	-11%	6%	-12%	4%	-10%	43%[activator]	-8%	-9.9%
COc1ccc(CNC(=O)[C@H](C)NC(=O)C2CCN(C(=O)[C@H](CCSC)NC(=O)OC(C)(C)C)CC2)cc1	x	x	x	2%	-15%	-12%	-5%	x
CCCS(=O)(=O)N1CCC(C(=O)NCCc2ccc(C)cc2)CC1	-5%	4%	-7%	3%	1%	-13%	-9%	2.5%
O=C(Cc1ccc2c(c1)OCO2)NN=Cc1ccc([N+](=O)[O-])o1	x	10µM*	u	-1%	x	-19%	-17%	x
CCCCCCn1c(O)c(C=Nc2ccccc2N2CCOCC2)c(=O)[nH]c1=S	x	x	x	1%	1%	-22%	-13%	x
CCN(CC)C(=O)C1CCCN(c2ccccc2[N+](=O)[O-])C1 (stereo not given)	x	12%[46.1 µM]	7%[46.1 µM]	1%	3%	-8%	22%	x
CC(C)(C)Nc1nc(-c2ccc3c(c2)CCN3C(=O)C2CC2)cs1	x	u	u	-14%	-44%	11%	1%	x
Cc1nnc(SCC(=O)NNC(=O)c2ccc(F)cc2)n1Cc1ccccc1	x	-1%[46.1 µM]	7%[46.1 µM]	2%	x	-6%	1%	x
O=C(CN(CC1CCCO1)C(=O)Cn1nnc(-c2ccc(F)cc2)n1)NC1CCCCC1 (stereo not given)	u	-1%	1%	-7%	-4%	1%	6%	-1.9%
Cc1ccc(C(=O)N(CC(=O)Nc2ccc(Cl)c(Cl)c2)Cc2ccco2)cc1	7%	u	-5%	-7%	14%	0%	12%	-10%
COc1ccc(-c2nc3scc(CCNS(=O)(=O)c4cc(F)ccc4OC)n3n2)cc1OC	u	x	-19%[46.1 µM]	x	x	53%[activator]	x	-6.8%
CCOc1ccc(N2CC(C(=O)N/N=C/c3sccc3C)CC2=O)cc1 (stereo not given)	x	x	x	1%	-8%	1%	0%	x
CS(=O)(=O)N(CC(=O)N/N=C/c1cccc2c1OCCO2)c1ccccc1Br	5%	-7%	9%	-2%	-4%	-15%	10%	-9.7%
CCCCCCC1CCC(C(=O)NC(C(=O)O)C(C)C)CC1 (stereo not given)	u	-27%[46.1 µM]	u	x	x	-2%	x	-5.7%
COc1ccc(Br)cc1S(=O)(=O)N1CCN=C1C	-1%	1%	-15%	-25%	3%	43%[activator]	-9%	0.5%
O=C(Cn1cc2c(n1)CCCC2)NC1CCN(Cc2ccccc2)CC1	3%	x	x	u	0%	-18%	-22%	3.7%
